CtBP-E1A inh: qHTS Assay for Inhibitors of the CtBP/E1A Interaction | CtBP / adenovirus E1A interaction (AlphaScreen) | AlphaScreen GST-E1A/His-CtBP binding, 1536-well; active compounds read low; control for the full effect not named in the record | activity change, % (concentration not given with the values) | actives 0.49% (n = 340,000) | AID 651724, 2012; in the data active means activity change below about -65%; inconclusive means about -30% to -65%; inactive means above about -30%; note: % is set by controls: 0 for no effect and ±100 for the full control effect
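In 5 uL wells, 23 nL compound meets equimolar GST-E1A and His-CtBP (5X stock 125 nM each) for 2 h, 37 °C. Beads (5X, 50 ug/mL) then 1 h, 37 °C, dark.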
Menin-MLL FL inh: qHTS Assay for Inhibitors Targeting the Menin-MLL Interaction in MLL Related Leukemias: Competition With Fluorescein Labeled MLL-derived Peptide; 290,000 tested, under 10 active; Fluorescence polarization, fluorescein-MLL peptide displacement from menin; FP activity change, % at 61.4 µM; inconclusive = falling polarisation curve, or a change in total fluorescence; inactive = total fluorescence flat and polarisation flat or rising; no compound was filed as active; the % refers to the polarisation; negative = inhibition;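 note: % of control where 0% means no effect; inhibitors lower the polarisation; unlabelled MLL peptide was the positive control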
TRPV1 PAM: HTS Assay for Compounds that Act as Potentiators of the Vanilloid Receptor 1; Transient receptor potential cation channel subfamily V member 1 (Homo sapiens), Q8NER1; TRPV1-expressing cells, Fluo-8 calcium influx, capsaicin EC20 potentiation; host cell line not named in the record; control for the full effect not named in the record; potentiation, % at 8.33 µM; actives 0.02% (n = 320,000); AID 540277, 2011; active means potentiation above 80%; inconclusive means 30% to 80%; inactive means below 30%; note: 0% is about no effect
Target sequence (Q8NER1 whole entry, looked up): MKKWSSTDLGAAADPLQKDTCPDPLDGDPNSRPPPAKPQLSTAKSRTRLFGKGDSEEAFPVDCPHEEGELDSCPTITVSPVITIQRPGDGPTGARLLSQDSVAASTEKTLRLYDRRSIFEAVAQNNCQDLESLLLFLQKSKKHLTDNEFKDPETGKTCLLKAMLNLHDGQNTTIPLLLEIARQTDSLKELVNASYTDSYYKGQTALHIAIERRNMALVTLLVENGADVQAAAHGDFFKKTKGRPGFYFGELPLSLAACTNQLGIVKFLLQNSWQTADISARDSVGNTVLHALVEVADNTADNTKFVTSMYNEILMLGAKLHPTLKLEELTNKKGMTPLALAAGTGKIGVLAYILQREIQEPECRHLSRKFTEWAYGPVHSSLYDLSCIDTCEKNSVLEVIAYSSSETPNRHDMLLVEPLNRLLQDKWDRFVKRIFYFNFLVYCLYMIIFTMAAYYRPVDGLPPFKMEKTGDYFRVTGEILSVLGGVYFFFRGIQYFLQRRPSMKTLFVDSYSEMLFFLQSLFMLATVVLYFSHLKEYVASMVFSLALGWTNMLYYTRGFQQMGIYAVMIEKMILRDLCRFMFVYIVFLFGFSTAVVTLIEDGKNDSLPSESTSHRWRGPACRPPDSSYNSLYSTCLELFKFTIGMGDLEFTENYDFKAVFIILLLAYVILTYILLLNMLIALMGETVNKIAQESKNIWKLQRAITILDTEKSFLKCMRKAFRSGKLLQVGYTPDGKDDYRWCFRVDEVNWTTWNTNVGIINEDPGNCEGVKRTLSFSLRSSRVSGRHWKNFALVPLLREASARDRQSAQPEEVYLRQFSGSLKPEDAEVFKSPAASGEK
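TRPV1-expressing cells were cultured overnight at 35.5C and loaded with Fluo-8 calcium dye for 40 to 90 min at room temperature. After a 10 s baseline, compound was added and calcium influx was read kinetically for 3 min (ex 480/em 520 nm).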
Sfp PPTase inh: qHTS Assay for Inhibitors of Bacillus subtilis Sfp phosphopantetheinyl transferase (PPTase); 4'-phosphopantetheinyl transferase ffp (Bacillus subtilis), Q9F4F7; Biochemical Sfp PPTase activity, qHTS; Potency, µM, for the others: max response, negative = inhibition, usual class: inhibitors; actives 3.5% (n = 310,000); active = well fitted inhibition curve with a large enough effect; inconclusive = small, poorly fitted or top-dose-only effect, or another doubt; inactive = no such curve, though single readings can be large or run the other way;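 note: the enzyme is Sfp with the accession as filed and its product quenches rhodamine fluorescence; potency is the fitted concentration of half-maximal effect; 0% = enzyme reaction without inhibitor and -100% = no enzyme wells; top concentration of the series not given in the record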
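Buffer: 50 mM Hepes-Na pH 7.6, 10 mM MgCl2, 0.01% Nonidet P-40, 0.01% BSA. Enzyme 15 nM, pre-exposed to compound 15 min; substrates then added and fluorescence change tracked over 30 min.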
gsp ag: qHTS for Agonist of gsp, the Etiologic Mutation Responsible for Fibrous Dysplasia/McCune-Albright Syndrome: qHTS; actives 0.13% (n = 340,000); Potency, µM (doses to about 76.9 µM), for the others: top-dose activation (cAMP increase), hits mostly activators; gsp mutant cells, cAMP HTRF, 30 min; control for the full effect not named in the record; active = well fitted activation curve with a large enough effect; inconclusive = small, poorly fitted or top-dose-only effect, or another doubt; inactive = no such curve, though single readings can be large or run the other way; cell line not stated here;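 note: phosphodiesterase inhibitor Ro 20-1724 added with compounds to block cAMP breakdown; potency is the fitted concentration of half-maximal effect; nearly all actives have a fitted effect of over 60% in size; about a fifth of the inactives were tested at one dose only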
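Cells stably selected in G418 were plated at 2000/well, grown 16-24 hr, then given compounds in DMSO with the PDE inhibitor […] (300 uM solution added) for 30 min at 37C; cAMP was read by HTRF.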
ClpP mod: qHTS Assay for Activators of ClpP | Potency, µM (series often up to 57.5 µM), for inactives: at the highest dose activity change, negative = active | AID 651965, 2013 | actives 1.9% (n = 340,000) | purified B. subtilis ClpP, FRET peptide cleavage, 20 min | ATP-dependent Clp protease proteolytic subunit (Bacillus subtilis (strain 168)), P80244; active = well fitted falling curve with a large enough effect; inconclusive = small, poorly fitted or top-dose-only effect; inactive = no such curve, though single readings can be large or run the other way; note: potency is the fitted concentration of half-maximal effect; the source files actives as falling curves though it sought activators and does not explain the sign; nearly all actives have a fitted effect of over 65% in size; many hits overshoot -100%
Target sequence (P80244 whole entry, looked up): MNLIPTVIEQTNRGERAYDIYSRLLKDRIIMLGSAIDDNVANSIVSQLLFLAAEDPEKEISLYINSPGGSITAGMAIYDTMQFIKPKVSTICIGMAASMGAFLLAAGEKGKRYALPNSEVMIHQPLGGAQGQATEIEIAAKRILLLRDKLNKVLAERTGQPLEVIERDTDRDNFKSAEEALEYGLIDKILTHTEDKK
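ClpP 10 microg/mL final, pH 8 Tris/KCl buffer with BSA, glycerol, Tween-20; compound pinned in; FRET-FV substrate; RT 20 min; Ex320/Em430; ΔFRET vs ADEP 5.8 microM, DMSO, no enzyme.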
gsp antagonist: qHTS for Antagonists of gsp, the Etiologic Mutation Responsible for Fibrous Dysplasia/McCune-Albright Syndrome: qHTS; gsp-mutant cells, cAMP HTRF, 30 min; control for the full effect not named in the record; Potency, µM (doses to about 76.9 µM), without a hit: at the top dose activity change, negative = inhibition, hits mostly inhibitors; actives 0.4% (n = 340,000); AID 624288, 2012; active = falling curve of any shape with a large fitted effect; inconclusive = falling curve, mostly with a smaller effect; inactive = flat or rising curve; cell line not stated here;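 note: intracellular cAMP measured with PDE inhibitor Ro 20-1724 present during compound exposure; potency is the fitted concentration of half-maximal effect; % is set by controls: 0 for no effect and ±100 for the full control effect; nearly all actives have a fitted effect of over 65% in size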
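Measurement of cellular cAMP by homogeneous time-resolved fluorescence following a 30 min compound exposure at 37C. The PDE inhibitor […] was present throughout; the assay buffer was DPBS with 0.05% BSA and 0.005% Tween 20.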
An asterisk follows results filed as active; ? = inconclusive; . = no result given; [ ] = another dose, or the depositor's remark.

SMILES	CtBP-E1A inh	Menin-MLL FL inh	TRPV1 PAM	Sfp PPTase inh	gsp ag	ClpP mod	gsp antagonist
CC(O)CNCCOc1ccccc1-c1ccccc1 (stereo not drawn)	17	-2.7	-15	71µM*	20%[15.4 µM]	1.1%	11%
Cc1noc(C)c1NC(=O)N(C)C[C@H]1Oc2c(NC(=O)Nc3ccc4c(c3)OCO4)cccc2C(=O)N([C@H](C)CO)C[C@@H]1C	-20	.	.	.	-4%	-4.8%	8%
COc1ccccc1N1CCN(C2CCCN(C(=O)CCc3cnn(C)c3)C2)CC1 (stereo not drawn)	2	-5.2	1	8%	28%	-0.8%	15%
COc1ccc2oc(=Nc3ccc(C(=O)O)cc3)c(C(=O)NCc3ccco3)cc2c1	.	1.6	?	17%	-12%	-2.1%	-8%
CCC(CC)NC(=O)Nc1cccc(C)c1C	.	-7.9	-22	-7%	0%	-0.7%	64%[activator]
COc1ccc(-c2ccc(CN3C(C(C)C)C(=O)N(Cc4cn(Cc5ccco5)nn4)CCS3(=O)=O)cc2)cn1 (stereo not drawn)	1	.	.	.	-4%	-2.1%	.
O=C(NCCCN1CCCC1=O)c1ccc([N+](=O)[O-])s1	-7	.	-4	.	-23%	1.1%	8%
O=C(NC(=O)N1CCN(c2ccc([N+](=O)[O-])cn2)CC1)c1ccccc1F	13	-0.4	5	19%	2%	0.2%	-1%
CCN(CC)S(=O)(=O)c1ccc(N2CCOCC2)c(NS(=O)(=O)c2ccc(C)c(C)c2)c1	0	8.7	2	14%	10%	0.5%	20%
CN(C)C(=O)CCc1ccc2c3c([nH]c2c1)[C@]1(CCc2ccccc2)[C@@H](C(=O)N2CCCCC2)C[C@H](CC(=O)NCc2cccc(C(F)(F)F)c2)C(=O)N1CC3	3	.	.	.	.	-1.2%	-10%

Some entries already given, limited to CtBP-E1A inh, gsp ag and Menin-MLL FL inh:
Compound	CtBP-E1A inh	gsp ag	Menin-MLL FL inh
CC(O)CNCCOc1ccccc1-c1ccccc1 (stereo not drawn)	17	20%[15.4 µM]	-2.7
Cc1noc(C)c1NC(=O)N(C)C[C@H]1Oc2c(NC(=O)Nc3ccc4c(c3)OCO4)cccc2C(=O)N([C@H](C)CO)C[C@@H]1C	-20	-4%	.

(listing goes on)
SMILES	CtBP-E1A inh	Menin-MLL FL inh	TRPV1 PAM	Sfp PPTase inh	gsp ag	ClpP mod	gsp antagonist
Cc1ccc(S(=O)(=O)N2CCCCC2)cc1NC(=O)CNc1ccccc1N1CCCC1=O	.	.	6	.	-9%	1.2%	-3%
O=C(NN=C1CCCC1)c1ccccc1[N+](=O)[O-]	8	-1.3	0	-3%	5%	.	5%
CCOC(=O)CSc1nc2c(c(=O)[nH]c(=O)n2C)n1Cc1ccccc1	-1	-11	9	12%	-1%	-0.4%	-4%
O=C(Cn1c(=O)sc2ccccc21)Nc1nc2c(s1)CCCC2	-4	1.0	-4	4%	1%	-3.2%	-4%
CCCCN(C(=O)c1cc2ccccc2o1)c1c(N)n(CC(C)C)c(=O)[nH]c1=O	-4	-0.5	-7	26%	2%	-4.7%	4%
CCOc1ccc(-c2cccc(NC(=O)c3cccs3)c2)nn1	-13	.	-13	.	14%[15.4 µM]	.	-21%
COc1ccc(S(N)(=O)=O)cc1C(=O)OCC(=O)N1CC(=O)Nc2ccccc21	2	.	1	.	-7%[15.4 µM]	.	7%
O=C(NCCN1CCOCC1)c1cc(-c2ccc(F)cc2)nc2ccccc12	0	.	-4	.	2%[15.4 µM]	25µM*	6%
Cc1ccc(C(=O)Nc2ccc3c(c2)CCC3)o1	10	0.4	-11	4%	-18%	0.3%	-3%
CC/C(=N\NC(=O)c1ccc(Br)cc1)c1ccccc1	0	0.4	-2	-2%	-33%[inhibitor]	0.3%	1%

Looked up above.
Value for `CN(C)C(=O)CCc1ccc2c3c([nH]c2c1)[C@]1(CCc2ccccc2)[C@@H](C(=O)N2CCCCC2)C[C@H](CC(=O)NCc2cccc(C(F)(F)F)c2)C(=O)N1CC3` in CtBP-E1A inh: 3
Value for `O=C(NCCCN1CCCC1=O)c1ccc([N+](=O)[O-])s1` in CtBP-E1A inh: -7
Value for `CCN(CC)S(=O)(=O)c1ccc(N2CCOCC2)c(NS(=O)(=O)c2ccc(C)c(C)c2)c1` in ClpP mod: 0.5%

(list continues)
SMILES	CtBP-E1A inh	Menin-MLL FL inh	TRPV1 PAM	Sfp PPTase inh	gsp ag	ClpP mod	gsp antagonist
Cc1ccc(S(=O)(=O)N2CCC(C(=O)NCCCN3CCCC3=O)CC2)cc1	6	.	.	.	14%[15.4 µM]	-0.2%	-1%
CCN(CC)S(=O)(=O)c1ccc2c(c1)nc(SCn1nnc3ccccc3c1=O)n2CC	3	1.2	-13	3%	35µM*	-1.6%	6%
COc1ccc(CC(=O)OCC(=O)Nc2ccc(Cl)cn2)cc1	5	-0.7	19	14%	23%	-3.5%	4%
CC1(C)Cc2c(cnn2-c2cccc(F)c2)C(NC(=O)c2csnn2)C1 (stereo not drawn)	-9	0.1	-10	11%	-32%[inhibitor]	-0.8%	0%
COc1ccc(OC)c(S(=O)(=O)NCc2cccnc2)c1	1	0.6	-1	12%	-2%	-0.3%	-9%
Cc1ccc(-c2cc(C(=O)Nc3nn[nH]n3)c3ccccc3n2)c(C)c1	-23	0.0	8	?	-8%	-26%	-3%
CCOC(=O)c1ccc(NC(=O)Nc2ccon2)cc1	9	-0.5	0	-19%	0%	-1.1%	16%
O=C(CN1CCCCCCC1)N/N=C/c1ccccc1F	1	5.0	-8	-7%	-48%[inhibitor]	-1.4%	8%
O=C(O)C1CC=CCC1C(=O)NCc1ccc2c(c1)OCO2 (stereo not drawn)	48	3.9	23	24%	8%	-0.3%	7%
COc1ccccc1C(c1nnnn1CCc1ccccc1)N1CCCCCC1 (stereo not drawn)	1	2.5	-7	0%	4%	-5.5%	-30%

Sorted by length of the SMILES (smallest number first): part of the list above.
SMILES	CtBP-E1A inh	Menin-MLL FL inh	TRPV1 PAM	Sfp PPTase inh	gsp ag	ClpP mod	gsp antagonist
O=C(CN1CCCCCCC1)N/N=C/c1ccccc1F	1	5.0	-8	-7%	-48%[inhibitor]	-1.4%	8%
O=C(O)C1CC=CCC1C(=O)NCc1ccc2c(c1)OCO2 (stereo not drawn)	48	3.9	23	24%	8%	-0.3%	7%
CCN(CC)S(=O)(=O)c1ccc2c(c1)nc(SCn1nnc3ccccc3c1=O)n2CC	3	1.2	-13	3%	35µM*	-1.6%	6%

Entries listed so far printed as active in Sfp PPTase inh:
compound | CtBP-E1A inh | Menin-MLL FL inh | Sfp PPTase inh | gsp ag | gsp antagonist
CC(O)CNCCOc1ccccc1-c1ccccc1 (stereo not drawn) | 17 | -2.7 | 71µM* | 20%[15.4 µM] | 11%

Carrying on:
SMILES	CtBP-E1A inh	Menin-MLL FL inh	TRPV1 PAM	Sfp PPTase inh	gsp ag	ClpP mod	gsp antagonist
COCC(C)NC(=O)c1cc(-c2ccccc2OC)on1 (stereo not drawn)	7	-0.3	-21	20%	3%	?	9%
CCOC(=O)CSC1=C(C#N)C(c2ccc(Cl)cc2)CC(=O)N1 (stereo not drawn)	-10	5.7	-1	-2%	-7%	-7.7%	7%
COc1ccc(Cl)cc1S(=O)(=O)N1CCCC(C(=O)N2CCOCC2)C1 (stereo not drawn)	-4	.	10	8%	-26%[15.4 µM]	.	2%
COc1cccc(-c2cc(C(=O)N3CCN(C(c4ccccc4)c4ccccc4)CC3)no2)c1	-15	1.1	11	1%	26%	-9.8%	-3%
CC(C)(C)n1nc2c(c1NC(=O)Cc1ccc([N+](=O)[O-])cc1)CS(=O)(=O)C2	12	.	1	16%	3%	0.7%	8%
Cn1c(=O)cc(OCCCC(=O)NCCC2=CCCCC2)c2ccccc21	1	3.8	-34	12%	8%[15.4 µM]	.	-2%
Cc1ccn2c(Nc3ccc4c(c3)OCO4)c(-c3ccccn3)nc2c1	-81*	?	-5	2.8µM*	-9%[15.4 µM]	-1.5%	?
CNC(=O)/C(=C\c1ccco1)NC(=O)c1ccco1	18	3.9	-6	11%	-4%[15.4 µM]	?	5%
Cc1ccccc1COc1cccc(/C=N/NC(=O)c2nnn(-c3nonc3N)c2C)c1	-1	0.3	-5	4%	18%	0.1%	-6%
COc1ccc(-c2csc(NC(=O)c3ccccc3NS(=O)(=O)c3ccc(C)cc3)n2)cc1	-13	6.9	10	5%	?	?	?
CCNc1nnc(SCC(=O)NC2CCCCCC2)s1	2	.	7	.	-10%	-5.7%	-5%
CC1=C(C(=O)Nc2ccccn2)C(c2ccc3c(c2)OCO3)C2=C(CC(C)(C)CC2=O)N1 (stereo not drawn)	4	-0.1	-5	2%	0%	.	-4%
COc1ccc(C(=O)C(Cc2cc(C(C)=O)ccc2OC)N2CCCC2)cc1 (stereo not drawn)	17	-2.7	-3	-1%	9%	0.4%	-8%
Cc1ccc(NC(=O)CN(C)C(=O)/C=C/c2ccc3c(c2)OCO3)cc1	0	.	0	.	-50%[inhibitor]	-10%	0%
Cc1ccc(S(=O)(=O)N2CC3(O)CN(C(=O)OC(C)C)N(C(=O)OC(C)C)CC3(OC(=O)Nc3c(C)noc3C)C2)cc1 (stereo not drawn)	2	.	.	.	-78%[inhibitor]	1.1%	.
Cc1cc(C)nc(SCC(=O)N2CCOCC2)n1	4	3.2	8	2%	-2%	-1.6%	5%

Source: PubChem
